# Assay outcomes deposited in PubChem by National Center for Advancing Translational Sciences (NCATS).
# Sfp PPTase inh = qHTS Assay for Inhibitors of Bacillus subtilis Sfp phosphopantetheinyl transferase (PPTase). AID 1490, 2009. Biochemical Sfp PPTase activity, qHTS. 4'-phosphopantetheinyl transferase ffp (Bacillus subtilis), Q9F4F7. Potency, µM, inactives show max response, negative = inhibition, most hits filed as inhibitors. 3.5% of 310,000 active; active = well fitted inhibition curve with a large enough effect; inconclusive = small, poorly fitted or top-dose-only effect, or another doubt; inactive = no such curve, though single readings can be large or run the other way;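 note: the enzyme is Sfp with the accession as filed and its product quenches rhodamine fluorescence; potency is the fitted concentration of half-maximal effect; 0% = enzyme reaction without inhibitor and -100% = no enzyme wells; top concentration of the series not given in the record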
#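 Step 1, compound plus 15 nM Sfp-PPTase, 15 min, room temperature. Step 2, add rhodamine-CoA (5 uM) and BHQ-2-YbbR (12.5 uM). Step 3, read 525/598 nm fluorescence at 0 and 30 min.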
# D2 ag = Beta-Arrestin HTS for Positive Allosteric Modulators of the Human D2 Dopamine Receptor: Agonists. D(2) dopamine receptor (Homo sapiens), P14416. DiscoveRx PathHunter D2 beta-arrestin, luminescence, 90 min; 100% = 57 uM dopamine signal. activation, % (test concentration not listed). 0.084% of 360,000 active. AID 624465, 2012; in the data active = activation above about 40%; inconclusive = about 15% to 40%; inactive = below about 15%; note: compound concentration not given in the record; the text of the record calls up to 30% inactive
#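 DiscoveRx PathHunter D2 beta-arrestin cells (2,100/well) attached overnight, then compound-stimulated 90 min at 37 C in HBSS/10 mM HEPES/0.1% Tween-20 buffer; beta-galactosidase complementation read by luminescence after 1 h at ambient temperature. Dopamine 57 uM final (EC100) as control.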
# CtBP-E1A inh = qHTS Assay for Inhibitors of the CtBP/E1A Interaction; CtBP / adenovirus E1A interaction (AlphaScreen); AlphaScreen GST-E1A/His-CtBP binding, 1536-well; stronger effect = lower value; control for the full effect not named in the record; activity change, % (test concentration not listed); 0.49% of 340,000 active; AID 651724, 2012; in the data active means activity change below about -65%; inconclusive means about -30% to -65%; inactive means above about -30%; note: % is set by controls: 0 for no effect and ±100 for the full control effect; compound concentration not given in the record
#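 GST-E1A and His-tagged CtBP (125 nM each as 5X stock) were preincubated with pin-transferred compound for 2 h at 37 °C in the dark, then glutathione donor and nickel acceptor beads were added for 1 h before AlphaScreen reading.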
# TRPV1 potentiator = HTS Assay for Compounds that Act as Potentiators of the Vanilloid Receptor 1; Transient receptor potential cation channel subfamily V member 1 (Homo sapiens), Q8NER1; TRPV1-expressing cells, Fluo-8 calcium influx, capsaicin EC20 potentiation; host cell line not named in the record; control for the full effect not named in the record; potentiation, % at 8.33 µM; 0.02% of 320,000 active; active means potentiation above 80%; inconclusive means 30% to 80%; inactive means below 30%; note: 0% is about no effect
#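 Cells expressing TRPV1 were dye-loaded with Fluo-8 and read kinetically: 10 s baseline, 3 min after compound (agonist portion), then 2 min after EC20 capsaicin (allosteric enhancer portion). Calcium-bound dye fluorescence at 480/520 nm.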
# Six1-Eya2 blk = qHTS Assay for Inhibitors of the Six1/Eya2 Interaction; Homeobox protein SIX1 (Homo sapiens) + Protein phosphatase EYA2 (Homo sapiens), …; AlphaScreen GST-Six1/His-Eya2 binding, biochemical; stronger effect = lower value; control for the full effect not named in the record; activity change, % (concentration not given with the values); 0.56% of 360,000 active; in the data active = activity change below about -65%; inconclusive = about -30% to -65%; inactive = above about -30%; note: % is set by controls: 0 for no effect and ±100 for the full control effect
# Target sequence (O00167 whole entry, looked up): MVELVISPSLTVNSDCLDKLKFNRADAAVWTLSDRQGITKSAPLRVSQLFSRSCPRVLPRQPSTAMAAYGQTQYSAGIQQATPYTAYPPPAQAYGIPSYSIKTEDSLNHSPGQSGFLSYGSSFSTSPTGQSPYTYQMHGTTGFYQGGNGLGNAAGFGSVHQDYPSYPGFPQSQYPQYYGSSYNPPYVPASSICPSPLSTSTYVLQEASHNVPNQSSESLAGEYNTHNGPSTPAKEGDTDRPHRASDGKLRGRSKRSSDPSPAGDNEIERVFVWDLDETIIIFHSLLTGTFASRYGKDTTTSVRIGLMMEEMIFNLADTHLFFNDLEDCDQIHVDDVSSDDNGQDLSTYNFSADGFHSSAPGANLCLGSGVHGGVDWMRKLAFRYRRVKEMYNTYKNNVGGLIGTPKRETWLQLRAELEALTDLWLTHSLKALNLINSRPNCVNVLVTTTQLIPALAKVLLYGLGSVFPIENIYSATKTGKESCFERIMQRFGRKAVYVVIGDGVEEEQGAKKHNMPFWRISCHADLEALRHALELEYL
# Target sequence (Q15475 whole entry, looked up): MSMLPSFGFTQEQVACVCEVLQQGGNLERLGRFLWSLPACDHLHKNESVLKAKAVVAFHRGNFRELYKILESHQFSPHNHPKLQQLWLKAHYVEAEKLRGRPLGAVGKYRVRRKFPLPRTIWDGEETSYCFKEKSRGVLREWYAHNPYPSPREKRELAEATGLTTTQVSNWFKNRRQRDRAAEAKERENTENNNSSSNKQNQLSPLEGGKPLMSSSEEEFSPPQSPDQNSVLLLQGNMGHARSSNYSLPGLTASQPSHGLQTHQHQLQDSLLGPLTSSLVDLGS
#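 AlphaScreen luminescence read after one hour at 37 °C in darkness. Pin-transferred compounds met GST-Six1 and His-Eya2 protein (5X stock 250 nM/500 nM) plus glutathione donor and Ni-chelate acceptor beads (5X, 50 ug/mL).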
# D2 potentiator = Beta-Arrestin HTS for Positive Allosteric Modulators of the Human D2 Dopamine Receptor: Potentiators; 0.23% of 360,000 active; potentiation, % (no concentration beside the values); DiscoveRx D2 beta-arrestin cells, luminescence, 90 min; 100% = 57 uM dopamine signal; AID 624464, 2012; active = potentiation of 50% or more; inconclusive = 30% to 50%; inactive = 30% or less;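 note: compound concentration not given in the record; tested on top of an EC20 dose of dopamine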
#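 PathHunter beta-arrestin assay in DiscoveRx D2 cells. Compounds were added with an EC20 of dopamine (50 nM final) for 90 min at 37 deg C. Luminescence was read 1 h after detection reagent, with 57 uM dopamine as the EC100 control.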
# PINK1 modulator = A Quantitative High throughput Screen to Identify Chemical Modulators of PINK1 Expression | Potency, µM (series often up to 76.6 µM), for inactives: at the top dose activation (PINK1 increase), most hits filed as activators | 0.2% of 410,000 active | PINK1 immunofluorescence, high-content cytometry, 24 h; active = well fitted activation curve with a large enough effect; inconclusive = small, poorly fitted or top-dose-only effect; inactive = flat fitted curve, though single readings scatter; cell line not stated here;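 note: potency is the fitted concentration of half-maximal effect; % of control where 0% means no effect; nearly all actives have a fitted effect of over 65% in size; a mitochondrial uncoupler was the plate control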
#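 Cells are seeded, rested 12 hours, then given compound at five concentrations or DMSO for 24 hours. After fixation, blocking and antibody staining, PINK1 amount and mitochondrial localization are scored; CCCP serves as control.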
# Starred values were filed as active, the others as inactive; ? = inconclusive; nt = no result given; & = joins results of further samples; [ ] = another dose, or the depositor's remark. Compounds as they come. About 3.7% of those tested had a hit in this group.
SMILES,Sfp PPTase inh,D2 ag,CtBP-E1A inh,TRPV1 potentiator,Six1-Eya2 blk,D2 potentiator,PINK1 modulator
CCCCC(=O)Nc1ccc(C(=O)NCCc2ccccc2)cc1,7%,-5.5,-20,-25,-6,-5,2.2%
Cc1ccccc1C(=O)Nc1nnc(CC(=O)N/N=C/c2cn(Cc3ccccc3)c3ccccc23)s1,-8%,-7.4,-9,6,-7,-6,?
COc1ccc(OC)c(NC(=O)c2cccnc2)c1,10%,3.5,6,10,3,0,0.5%
O=C(CO/N=C/c1ccccc1)Nc1c(F)c(F)c(F)c(F)c1F,4%,-4.4,15,-14,12,-3,0.3%
Cc1ccc(CNC(=O)CN2C(=O)C3(OCCCO3)c3ccccc32)cc1,8%,1.2,0,-14,2,-9,2.5%[38.3 µM]
CN1CCN(c2ccccc2NS(=O)(=O)c2ccc3c(c2)CCN3C(=O)C2CCC2)CC1,nt,0.3,-5,nt,-5,-8,-1.3%
Cc1ccccc1CCNC(=O)C1CCCN(c2cnccn2)C1 (stereo unspecified),4%,1.1,2,2,2,-2,-1.1%
O=C(c1cc2ccccc2oc1=O)N(Cc1ccccc1)CC1CCCO1 (stereo unspecified),-20%,1.8,-10,-8,0,5,0.4%
CCOC(=O)c1cnc2c(C)c(Cl)ccc2c1N1CCN(CC)CC1,3%,-6.5,-5,3,-11,-12,1.5%
Cn1cc2cc(NC(N)=S)ccc2n1,-4%,-0.1,7,-10,2,-5,-0.5%

# Of the compounds above, these have a halogen:
SMILES,Sfp PPTase inh,D2 ag,CtBP-E1A inh,TRPV1 potentiator,Six1-Eya2 blk,D2 potentiator,PINK1 modulator
O=C(CO/N=C/c1ccccc1)Nc1c(F)c(F)c(F)c(F)c1F,4%,-4.4,15,-14,12,-3,0.3%
CCOC(=O)c1cnc2c(C)c(Cl)ccc2c1N1CCN(CC)CC1,3%,-6.5,-5,3,-11,-12,1.5%

# Later entries:
SMILES,Sfp PPTase inh,D2 ag,CtBP-E1A inh,TRPV1 potentiator,Six1-Eya2 blk,D2 potentiator,PINK1 modulator
CCOC(=O)CN1C(=O)C(O)(c2c(C)[nH]c3ccccc23)c2ccccc21 (stereo unspecified),-2%,-2.5,3,1,4,7,1.6%
O=C(Nc1cccc2ccccc12)N(c1ccccc1)c1ccccc1,nt,0.1,-7,nt,7,-14,0.1%
CCCc1nc2cc3c(cc2[nH]1)n(C)c(=O)n3C,-8%,0.8,0,29,-10,-3,0.2%
CC(=O)[C@H]1[C@H](CCc2ccccc2)NC(=O)N(Cc2ccccc2)[C@@H]1C,5%&19%,-2.2,-13,?,0,-4,1.8%
CC1(C)CC(=O)c2cc(C(=O)O)c(=O)n(-c3ccccc3)c2C1,6%,-1.6,-1,-18,-87*,4,0.7%
COc1ccccc1/C=N/NC(=O)c1ccc(-c2ccccc2)cc1,-4%,-4.5,3,-15,-1,-2,4.4%
O=C(CNC(=S)N(CCCN1CCOCC1)Cc1cccs1)NCCCN1CCOCC1,5%,-0.6,-8,-2,10,-6,-2.2%
OCC(CO)(CO)NCC(O)CN1c2ccccc2Sc2ccccc21 (stereo unspecified),5%,-2.9,nt,17,-4,-5,0.9%
Cc1ccc(C(=O)N/N=C\C=C\c2ccccc2[N+](=O)[O-])cn1,-2%,-2.5,-22,-19,-2,-4,1.1%
CC1c2ccsc2CCN1C(=O)NC(=O)c1ccc(Cl)cc1 (stereo unspecified),14%,2.8,5,3,1,-13,5.2%
CCC(=O)NC(c1cccs1)c1cc(Cl)c2cccnc2c1O (stereo unspecified),6%,9.7,nt,-2,-89*,?,2.4%
CC1CN(Cc2csc(-c3ccc(Cl)cc3)n2)CC(C)O1 (stereo unspecified),-31%,-1.7,5,4,-11,-16,1.7%
Cc1cc(C)c2nc(N3CCCC(C(=O)NCCCN4CCOCC4)C3)sc2c1 (stereo unspecified),3%,-0.4,2,3,-1,-18,-3.1%
CC(NC(=O)C(=O)NN=C1CCC(C(C)(C)C)CC1)c1ccccc1 (stereo unspecified),-6%,1.6,2,9,3,4,1.7%
CCC(C)NC(=O)CCC(=O)Nc1ccc2nc(N3CC(C)CC(C)C3)cc(C)c2c1 (stereo unspecified),3%,-1.9,5,6,15,-3,?
CCCC[C@@H]1C=C(C(=O)O)[C@H](c2ccc(Cl)cc2)N1S(=O)(=O)c1ccc(C)cc1,nt,-1.0,2,nt,-5,-5,-1.2%
Cc1ccccc1N/C(SCc1ccc(Cl)cc1)=C(/C#N)C(=O)NCc1ccco1,13%,-4.8,-7,-7,-8,-11,-1.8%[38.3 µM]
Cc1ccc(C)c(Nc2nc(N)c3ccccc3n2)c1,6%,0.8,-2,2,2,-19,-2.6%
CC(C)C[C@@H](CN1CCC[C@@H]1CN1C(=O)C(=O)NC[C@@H]1Cc1ccccc1)N1C[C@H](Cc2ccc(O)cc2)N(CC2CCCCCC2)C(=O)C1=O,nt,-7.6,-2,nt,-3,-2,4.9%
CC(C)C1Cc2c(sc3c2c(=O)n(-c2ccccc2)c2n[nH]c(=S)n32)CO1 (stereo unspecified),-13%,-3.7,2,14,-2,-12,1.7%
O=C(CCCC(=O)N(CC(=O)NC1CCCC1)Cc1ccccc1Cl)Nc1ccccn1,5%,-1.7,7,5,3,?,-0.2%
COc1ccc(C(=O)NC(=S)N2CCNC(=O)C2CC(=O)OC(C)C)cc1 (stereo unspecified),?,-3.5,-10,0,-4,-28,1.8%
Cc1ccc(S(=O)(=O)Nc2cccc(S(=O)(=O)Nc3ccccc3C(=O)O)c2)c(C)c1,nt,1.7,2,nt,10,1,4.6%
O=C(O)CCCc1ccc2c(c1)CCc1ccccc1-2,nt,0.3,7,-7,0,2,-0.8%
O=C1NC(=O)/C(=C/C(=O)N2CCOCC2)S1,-1%,-3.4,nt,4,4,-10,-1.4%
COc1cc2c(cc1OC)CN(CC(=O)Nc1ccc(S(=O)(=O)N(C)C)cc1)CC2,2%,-3.4,3,-6,3,-9,-0.3%
COc1ccc(/C(N)=C/C(=O)C(C)(C)C)cc1,7%,-1.8,2,-2,-2,-14,nt
CCOC(=O)C1CCN(C(=O)c2cc3c(C)cc(C)cc3[nH]2)CC1,2%,0.3,nt,7,-3,-8,0.5%
CSc1sc(C(=O)NCC2CC2)c(-c2cccs2)c1C#N,7%,3.0,0,nt,7,3,1.5%
Cn1c(=O)[nH]c(=O)c2c1nc(N1CCN(CCO)CC1)n2CCSc1nc2ccccc2s1,-5%,-3.6,0,-2,14,-15,-0.4%
C[C@H](CO)N1C[C@H](C)[C@@H](CN(C)S(=O)(=O)c2cn(C)cn2)Oc2ncc(Br)cc2C1=O,nt,-2.8,4,nt,4,3,1.8%
Nc1cc(=O)nc(SCC(=O)NCc2ccccc2)n1CCc1ccccc1,4%,-2.2,-22,9,-18,2,3.4%
COc1cc(CNc2ccc3[nH]c(=O)[nH]c3c2)ccc1OCc1ccccc1Cl,-15%,4.2,-5,-15,-12,2,3.2%
CCOC(=O)N1CCC(N2CC34C=CC(O3)C(C(=O)O)C4C2=O)CC1 (stereo unspecified),-4%,-1.3,4,?,7,0,-3.3%
CC(=O)Nc1ccc2ccccc2c1[N+](=O)[O-],nt,-1.7,5,nt,6,-2,-1.5%
CCOC(=O)C(NC(=O)NCc1ccccc1OC)(OCC)C(F)(F)F (stereo unspecified),7%,0.4,2,-4,0,2,2.9%
COC(=O)c1ccc(NC(=O)C2CCCN(S(C)(=O)=O)C2)cc1 (stereo unspecified),9%,-0.8,-8,-5,-5,-8,0.1%
CC(=O)Nc1cccc2c1C(=O)NC2=O,-12%,-2.0,5,9,2,-4,0.3%
O=c1[nH]c2cc3c(cc2cc1CN(CC1CCCO1)S(=O)(=O)c1ccc(Cl)cc1)OCCO3 (stereo unspecified),-8%,0.2,1,0,4,-7,16%[38.3 µM]
O=C(Nc1ccc(Cl)c(C(F)(F)F)c1)C1Cc2c(-c3ccccc3Oc3ccccc3)ccnc2O1 (stereo unspecified),nt,-5.5,-3,nt,-5,1,22%
CC(C)(C)c1ccc(-c2noc(CCC(=O)N3CCOCC3)n2)cc1,14%,-6.1,-1,-5,-2,-3,1.0%
CC(=O)Nc1cccc(C(=O)OCC(=O)c2ccccc2Cl)c1,19%,-2.6,5,-7,0,5,3.7%
Cc1ccccc1OCC(=O)NNC(=O)c1cc(S(=O)(=O)N2CCOCC2)ccc1N1CCCC1,nt,-2.3,-4,-1,1,-1,1.7%
O=C(NC1c2ccccc2Oc2ccccc21)c1ccc([N+](=O)[O-])cc1,nt,5.4,0,nt,8,-2,11%
Cc1cccc(-c2ocnc2C(=O)Nc2ncc(C)s2)c1,nt,-1.9,4,nt,14,-3,0.0%
Cn1c(=O)c2c(ncn2CC(COCc2ccc(Cl)cc2)OCc2ccc(Cl)cc2)n(C)c1=O (stereo unspecified),-8%,4.4,0,4,1,-9,-0.5%
Cc1ccccc1Nc1c(-c2cccnc2)nc2cccc(C)n12,8%,-3.1,4,-5,1,-10,1.8%&-0.9%
COc1ccc(S(=O)(=O)N(CC(=O)N/N=C/c2ccc(C(=O)O)cc2)Cc2ccccc2)cc1OC,15%,-1.4,-6,15,-21,-1,1.8%
CNS(=O)(=O)c1cccc(C(=O)NNC(=O)CN(C)S(=O)(=O)c2ccc(Cl)cc2)c1,nt,-5.7,2,13,1,-6,-0.9%
CC(=O)c1ccc(NC(=O)CC(NCCC2=CCCCC2)C(=O)O)cc1 (stereo unspecified),-2%,0.0,6,-6,7,-3,4.8%
COC(=O)c1ccc(NCC(=O)Nc2cc(C)cc(C)c2)cc1,6%,2.4,1,-6,2,-10,5.0%
